FGF22 binding: shifts melting point of recombinant human FGF22; Q9HCT0; hit rate 1.5% among 340,000; recombinant FGF22 thermal shift, SYPRO orange fluorescence; percent of sucrose octasulfate shift, DMSO zero; calls only at 9.99 µM;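 active means melting point raised past a set limit in the mean and every replicate; three in four hits are not shown here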
Target sequence (Q9HCT0 whole entry, looked up): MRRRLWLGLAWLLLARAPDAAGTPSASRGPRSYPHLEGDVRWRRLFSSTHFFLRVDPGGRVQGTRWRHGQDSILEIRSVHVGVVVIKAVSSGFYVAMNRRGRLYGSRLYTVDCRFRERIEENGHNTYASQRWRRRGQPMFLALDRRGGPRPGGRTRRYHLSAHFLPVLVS
rRNA inh HTS: inhibitors of bacterial rRNA selective over humanized ribosomes. E. coli WT GFP vs humanized-ribosome RFP mutants, fluorescence, 24 h; stronger effect = lower value; DMSO median 0, no signal -100. GFP signal change (wild-type ribosome), % (concentration not given with the values). hit rate 1.6% among 350,000. AID 720706;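 active means significant combined selectivity score with lowered wild-type GFP, culture density cut under 30%, mutant RFP and density less affected; inactive means any of these conditions unmet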; further: one replicate is shown; some compounds called inactive have numbers as strong as hits
AF4-AF9 inh: inhibitors of human MLL-AF4/AF9 interaction; AlphaScreen, biotin-AF4 peptide binding to FLAG-AF9; hit rate 0.47% among 350,000; inhibition, % at 10 µM; P42568;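 active means every replicate reaching a set inhibition limit, whatever the replicate mean, cut at about 25% in these data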;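 further: 0% = plate neutral control median and 100% = total signal loss; the record names both 10 and 1 µM as test concentration; the first replicate is given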
Target sequence (P42568 whole entry, looked up): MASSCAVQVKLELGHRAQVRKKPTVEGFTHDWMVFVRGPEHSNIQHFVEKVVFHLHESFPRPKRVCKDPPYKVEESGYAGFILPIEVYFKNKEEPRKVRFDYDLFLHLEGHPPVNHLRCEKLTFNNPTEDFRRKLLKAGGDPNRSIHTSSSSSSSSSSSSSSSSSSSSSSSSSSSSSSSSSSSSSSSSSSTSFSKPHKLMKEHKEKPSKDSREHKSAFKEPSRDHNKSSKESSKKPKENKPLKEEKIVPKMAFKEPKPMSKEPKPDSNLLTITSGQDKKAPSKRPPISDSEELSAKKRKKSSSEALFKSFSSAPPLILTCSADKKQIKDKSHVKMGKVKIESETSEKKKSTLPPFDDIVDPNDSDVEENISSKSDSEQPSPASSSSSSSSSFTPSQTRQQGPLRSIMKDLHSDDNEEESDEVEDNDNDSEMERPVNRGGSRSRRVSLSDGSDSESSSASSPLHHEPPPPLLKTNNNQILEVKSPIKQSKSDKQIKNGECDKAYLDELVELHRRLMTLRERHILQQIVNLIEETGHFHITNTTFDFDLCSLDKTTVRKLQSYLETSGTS
rRNA inh HTS OD600: second read-out of rRNA inh HTS, no call of its own (marks repeat the call); OD600 change, %; measured here: OD600 growth;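 optical density of the mix in the first replicate; 0 = DMSO median and -100 = no signal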
rRNA inh HTS RFP: further read-out of rRNA inh HTS, marked with its call; RFP signal change, %; measured here: RFP humanized mutant strains;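 first replicate; 0 = DMSO median and -100 = no signal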
An asterisk follows results filed as active; i = inactive; & = joins results of further samples. The list is partial; rates above refer to the full screens.

SMILES | FGF22 binding | rRNA inh HTS | rRNA inh HTS OD600 | rRNA inh HTS RFP | AF4-AF9 inh
CNC(=O)C[C@@H]1CC[C@H]2[C@@H](COC[C@@H](O)CN2C(=O)Nc2ccc(Cl)c(Cl)c2)O1 | i | -58 | -78 | -17 | 0.2
O=C(C[C@H]1C=C[C@H](NC(=O)Nc2cccc(F)c2)[C@H](CO)O1)NCC1CCCCC1 | i | 3 | 7 | -0.1 | -1.5
CCCC(=O)N1CCCC(c2cc(C(=O)Nc3ccc4c(c3)OCO4)no2)C1 (stereo not given) | i | -1 | 0 | 2.7 | -4.2
O=C(O)CSc1nc2ccc(Br)cc2[nH]1 | i | 0 | -4 | -1.0 | -5.4
CC(C)CC#Cc1cnc2c(c1)C(=O)N([C@@H](C)CO)C[C@H](C)[C@H](CN(C)Cc1cncnc1)O2 | i | 4 | 5 | -1.1 | -4.0
CO[C@H]1CN(C)C(=O)c2ccc(NC(C)=O)cc2OC[C@H](C)N(C(=O)c2ccc(F)cc2)C[C@@H]1C | i | 1 | -1 | 0.5 | 0.4
COc1ccc(NC(=O)Nc2ccc3c(c2)C(=O)N([C@H](C)CO)C[C@H](C)[C@H](CN(C)Cc2ccc(C(=O)Nc4ccccc4N)cc2)O3)cc1 | i | -5 | -14 | -2.4 | -2.2
CCCN(C)C[C@@H]1Oc2cc(/C=C/c3ccccc3)ccc2S(=O)(=O)N([C@H](C)CO)C[C@@H]1C | i | -1 | 8 | 2.0 | 17
Cc1noc(C)c1S(=O)(=O)N(C)C[C@H]1OCCCC[C@@H](C)Oc2ccc(NC(=O)CCCN(C)C)cc2C(=O)N([C@H](C)CO)C[C@@H]1C | i | 4&4 | 6&8 | -1.3&0.9 | -1.2&2.0
CC(C)[C@H](NC(=O)OC(C)(C)C)c1cc(C(=O)NC2CC2)c(N)s1 | i | 4 | 11 | 0.7 | 6.9
O=C(Nc1ccccc1F)N[C@@H]1CC[C@H](CCNC(=O)C2CCCC2)O[C@H]1CO | i | 2 | 8 | -2.4 | -0.9
Cc1ccc(S(=O)(=O)N(C)C[C@H]2Oc3ccc(NC(=O)CCN4CCOCC4)cc3CC(=O)N([C@@H](C)CO)C[C@@H]2C)cc1 | i | 1 | 0 | -1.4 | 2.9
CC(C)NC(=O)N(C)C[C@H]1OCCCC[C@H](C)Oc2ccc(NC(=O)c3ccccc3)cc2C(=O)N([C@@H](C)CO)C[C@@H]1C | i | -1 | -6 | -0.1 | -4.3
Cc1noc(C)c1NC(=O)Nc1ccc2c(c1)C(=O)N([C@H](C)CO)C[C@@H](C)[C@H](CN(C)Cc1ccc(C(F)(F)F)cc1)OCCCC[C@@H](C)O2 | i | 3 | -3 | 0.2 | 6.7
C[C@H]1CN([C@@H](C)CO)S(=O)(=O)c2ccc(C#CC3(O)CCCC3)cc2O[C@H]1CN(C)C(=O)c1cccnc1 | i | -1 | 11 | 1.2 | 0.7
C[C@@H]1CN([C@@H](C)CO)C(=O)c2cc(NC(=O)Nc3ccccc3)ccc2O[C@H]1CN(C)S(=O)(=O)c1ccccc1 | i | -6 | -8 | 3.2 | 3.7
O=C(NCc1ccc(F)cc1)[C@H]1[C@H](CO)[C@H]2Cn3c(cccc3=O)[C@@H]1N2C(=O)Cc1ccccn1 | i | 3 | 8 | 2.4 | -1.2
COc1ccc(S(=O)(=O)N(C)C)cc1NC(=O)C1CCN(c2ncnc3sc(C)c(C)c23)CC1 | i | -2 | -2 | 15 | 3.4
COc1ccccc1C(=O)Nc1nnc([C@@H]2C[C@H](O)[C@@H](CO)O2)s1 | i | 0 | 6 | -1.5 | -2.2
COCC(=O)N1C[C@@H](C)[C@@H](OC)CN(C)C(=O)c2cc(NS(C)(=O)=O)ccc2OC[C@@H]1C | i | 10 | 6 | 3.4 | -2.5
CN(C)C(=O)c1ccc(-c2ccc([C@@H]3[C@@H](CO)N(C(=O)C4CCC4)[C@H]3C#N)cc2)cc1 | i | 1 | -1 | 0.9 | -1.0
Cc1ccc(S(=O)(=O)N[C@H]2CC[C@H](CC(=O)NCc3ccc(Cl)c(Cl)c3)O[C@H]2CO)cc1 | i | -20 | -42 | 27 | 2.3
CCCN(C)C[C@@H]1Oc2ncc(Br)cc2C(=O)N([C@@H](C)CO)C[C@@H]1C | i | 1 | -1 | -2.5 | -3.7
C[C@@H]1CN([C@@H](C)CO)C(=O)Cc2cc(NS(=O)(=O)c3ccc(Cl)cc3)ccc2O[C@@H]1CN(C)CC1CC1 | i | 2 | 1 | 1.8 | 1.1
O=S(=O)(NC[C@H]1N[C@@H](CO)[C@H]1c1ccc(C2=CCCC2)cc1)c1ccccc1 | i | 0 | -3 | 0.4 | -2.2
COc1ccccc1CN1[C@@H]2CN(C(=O)C3CC3)c3ccccc3[C@@H]2[C@@H]1CO | i | -1 | -6 | -0.3 | -0.3
C[C@@H]1CN([C@H](C)CO)C(=O)c2cc(NC(=O)Cn3cnnn3)ccc2O[C@H]1CN(C)C(=O)NC1CCCCC1 | i | 3 | 8 | -4.0 | -3.5
COc1ccc(NC(=O)Nc2ccc3c(c2)CC(=O)N([C@H](C)CO)C[C@@H](C)[C@H](CN(C)Cc2ccccc2)O3)cc1 | i | 0 | -3 | 5.1 | 2.8
C[C@@H](O)C#Cc1ccc([C@@H]2[C@@H](CO)N3CCCCN(S(=O)(=O)Cc4ccccc4)C[C@H]23)cc1 | i | 1 | 3 | -4.5 | 0.3
C[C@H]1CN([C@@H](C)CO)C(=O)c2cccc(NC(=O)C3CC3)c2O[C@@H]1CN(C)C(=O)Nc1ccc2c(c1)OCO2 | i | 2 | 2 | -1.0 | -11
Cc1sc2nc(CSCC(=O)N3CC(C)OC(C)C3)[nH]c(=O)c2c1C (stereo not given) | i | 4 | 5 | -0.7 | 9.6
C[C@@H]1CN([C@@H](C)CO)C(=O)CCCn2cc(nn2)CO[C@H]1CN(C)S(=O)(=O)c1cccc(F)c1 | i | 8&-1 | -1&2 | -3.3&-0.4 | -1.1&1.4&-2.5
CCCc1ccc(C(O)c2ncc(-c3cccc(OC)c3)[nH]2)cc1 (stereo not given) | i | -22 | -60 | 7.0 | 6.0
C[C@H](O)C#Cc1ccc2c(c1)O[C@H](CN(C)C(=O)CC1CC1)[C@H](C)CN([C@@H](C)CO)S2(=O)=O | i | -1 | 3 | -3.5 | -0.2
COCC(=O)N1CCCCN2[C@H](CO)[C@@H](c3ccc(C#Cc4cccnc4)cc3)[C@H]2C1 | i | 4 | 5 | -1.6 | 10
Nc1nnc(SCC(=O)NNC(=O)c2ccccc2F)s1 | i | 9 | 3 | 0.5 | 1.9
CN(C)CC(=O)N1CCCCN2[C@@H](CO)[C@H](c3ccc(-c4cccnc4)cc3)[C@@H]2C1 | i | 6 | 6 | -2.3 | -1.9
Cc1cc(C(O)c2ncc(-c3ccccc3Cl)[nH]2)ccc1F (stereo not given) | i | 3 | -21 | -3.8 | 7.2
CC(=O)c1cccc(-c2cnc3c(NC=O)cc(-c4ccccc4Oc4ccccc4)cn23)c1 | i | -1 | -5 | 25 | 3.9
C/C=C/c1ccc([C@@H]2[C@@H](C#N)N(C(=O)NC3CCCCC3)[C@@H]2CO)cc1 | i | 0 | -16 | -3.7 | -3.5
Clc1nnc2c3ccccc3ccn12 | i | 1 | 5 | 0.7 | -3.2
Cc1noc(C)c1S(=O)(=O)Nc1ccc2c(c1)C(=O)N([C@@H](C)CO)C[C@H](C)[C@H](CN(C)Cc1ccc(C(F)(F)F)cc1)OCCCC[C@H](C)O2 | i | 0 | -8 | 5.1 | 2.8
C[C@@H]1CN([C@H](C)CO)C(=O)c2cc(NC(=O)Nc3cccc4ccccc34)ccc2O[C@H]1CN(C)S(=O)(=O)c1ccccc1 | i | 1 | 1 | 1.9 | 2.7
COc1ccc(S(=O)(=O)Nc2ccc3c(c2)C(=O)N([C@@H](C)CO)C[C@@H](C)[C@H](CN(C)S(=O)(=O)c2cccs2)O3)cc1 | i | -7 | -12 | -2.2 | 1.7
O=C(c1ccc2c(c1)OCO2)N1C[C@H]2[C@@H](c3ccccc31)[C@@H](CO)N2Cc1cccnc1 | i | 2 | 4 | 0.7 | -0.4
O=C(Cc1cccc(NC(=O)C2CCCN(C(=O)CCc3ccccc3)C2)c1)Nc1cccc(C(=O)N2CCOCC2)c1 (stereo not given) | i | -1 | -1 | 3.0 | 1.9
C[C@H](CO)N1C[C@H](C)[C@@H](CN(C)C(=O)CN(C)C)Oc2cc(C#C[C@@H](C)O)ccc2S1(=O)=O | i | 5 | 5 | -2.8 | -0.9
CCC(=O)N[C@@H]1CC[C@@H](CCNS(=O)(=O)c2ccc(Cl)cc2)O[C@H]1CO | i | -2 | 5 | -0.7 | -2.0
C[C@@H]1CCCCO[C@@H](CN(C)Cc2ccncc2)[C@@H](C)CN([C@@H](C)CO)C(=O)c2cc(NC(=O)CCCN(C)C)ccc2O1 | i | 1 | 2 | -3.0 | -6.4
C[C@H]1CCCCO[C@H](CN(C)C)[C@@H](C)CN([C@@H](C)CO)C(=O)c2cc(NC(=O)Nc3ccccc3)ccc2O1 | i | -2 | -2 | -2.5 | 2.4
(further entries)
SMILES | FGF22 binding | rRNA inh HTS | rRNA inh HTS OD600 | rRNA inh HTS RFP | AF4-AF9 inh
COCC#Cc1ccc2c(c1)O[C@@H](CN(C)C(=O)c1ccccc1)[C@H](C)CN([C@@H](C)CO)S2(=O)=O | i | -1 | -14 | -1.3 | 0.8
CO[C@@H]1CN(C)C(=O)c2cc(NC(=O)c3ccno3)ccc2OC[C@@H](C)N(S(C)(=O)=O)C[C@@H]1C | i | 2 | 3 | -0.5 | -5.8
C[C@H](CO)N1C[C@H](C)[C@H](CN(C)CC2CCCCC2)Oc2ncc(-c3ccc(F)cc3)cc2C1=O | i | 6 | 5 | 0.3 | 4.5
CO[C@H]1CN(C)C(=O)c2ccc(NC(=O)c3nc4ccccc4s3)cc2OC[C@H](C)NC[C@H]1C | i | -8 | -8 | -0.6 | 5.4
Cc1ccc(S(=O)(=O)NCC[C@H]2CC[C@H](NC(=O)CCN3CCCCC3)[C@H](CO)O2)cc1 | i | 1 | -1 | 0.0 | 3.7
O=[N+]([O-])c1ccc2c(c1)CO[C@@]21O[C@H](CCO)C[C@H](O)[C@H]1O | i | 17 | 7 | -0.6 | -1.5
CC(C)[C@H](NC(=O)c1ccccc1F)C(=O)Nc1cccc(S(=O)(=O)N2CCOCC2)c1 | i | 3 | -8 | -4.5 | -3.6
O=C(C[C@@H]1CC[C@H]2[C@@H](COC[C@H](O)CN2Cc2cc(F)ccc2F)O1)NCc1ccc(F)cc1 | i | -1 | 7 | -3.8 | 0.6
COCOCCn1cc(CN2CCS(=O)(=O)N(Cc3ccc(-c4ccc(Cl)c(Cl)c4)cc3)C(C)C2=O)nn1 (stereo not given) | i | -9 | -18 | -1.4 | -6.8
C[C@H](CO)N1C[C@H](C)[C@H](CN(C)S(=O)(=O)c2ccc(F)cc2)Oc2cc(C3=CCCCC3)ccc2S1(=O)=O | i | 5 | 25 | -1.7 | 0.3
C[C@H]1CN([C@@H](C)CO)C(=O)Cc2cc(NS(=O)(=O)c3cn(C)cn3)ccc2O[C@H]1CN(C)Cc1ccc(Oc2ccccc2)cc1 | i | 1 | -7 | 3.0 | 7.1

Structural class, those above containing an aryl methoxy group
SMILES | FGF22 binding | rRNA inh HTS | rRNA inh HTS OD600 | rRNA inh HTS RFP | AF4-AF9 inh
COc1ccc(NC(=O)Nc2ccc3c(c2)C(=O)N([C@H](C)CO)C[C@H](C)[C@H](CN(C)Cc2ccc(C(=O)Nc4ccccc4N)cc2)O3)cc1 | i | -5 | -14 | -2.4 | -2.2
COc1ccc(S(=O)(=O)N(C)C)cc1NC(=O)C1CCN(c2ncnc3sc(C)c(C)c23)CC1 | i | -2 | -2 | 15 | 3.4
COc1ccccc1C(=O)Nc1nnc([C@@H]2C[C@H](O)[C@@H](CO)O2)s1 | i | 0 | 6 | -1.5 | -2.2
COc1ccccc1CN1[C@@H]2CN(C(=O)C3CC3)c3ccccc3[C@@H]2[C@@H]1CO | i | -1 | -6 | -0.3 | -0.3
COc1ccc(NC(=O)Nc2ccc3c(c2)CC(=O)N([C@H](C)CO)C[C@@H](C)[C@H](CN(C)Cc2ccccc2)O3)cc1 | i | 0 | -3 | 5.1 | 2.8
CCCc1ccc(C(O)c2ncc(-c3cccc(OC)c3)[nH]2)cc1 (stereo not given) | i | -22 | -60 | 7.0 | 6.0
COc1ccc(S(=O)(=O)Nc2ccc3c(c2)C(=O)N([C@@H](C)CO)C[C@@H](C)[C@H](CN(C)S(=O)(=O)c2cccs2)O3)cc1 | i | -7 | -12 | -2.2 | 1.7
